AID923 = qHTS Assay for Allosteric/Competitive Inhibitors of Caspase-1: Spectroscopic Profiling in AFC Spectral Region; compound fluorescence, AFC spectral region (405/520 nm); almost no hit is shown here; 75,000 tested, 1.1% active; Potency, µM (series often up to 57.5 µM), without a hit: at the top dose fluorescence increase, hits mostly activators; AID 923, 2007; active = well fitted activation curve with a large enough effect; inconclusive = small, poorly fitted or top-dose-only effect;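 also: potency is read from the fitted curve at half-maximal effect; 0% is about no effect; scaled to a free AFC standard on each plate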
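Baseline compound fluorescence (AFC region, 405 nm ex/520 nm em) taken from the intercept of kinetic reads with 50 nM caspase-1 and 5 uM Ac-WEHD-AFC; normalized to an on-plate AFC standard curve; compounds titrated up to 57 uM.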
A488 fluor = compound fluoresces in the A488 spectral region | compound autofluorescence, A488 spectral region, dye equivalency; active compounds read high | max dye equivalency, M | 59,000 tested, 0.1% active; active = above 10 nM dye equivalent; inconclusive = 1 to 10 nM; inactive = 1 nM or less; about half of its hits are not listed in these tables;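 also: highest value over a series up to 38 µM; compound alone in buffer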
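Autofluorescence read at ex 480/em 540 nm after 15 min RT in 100 mM Tris pH 8.0; compound signal normalized to A488 standard series on each plate, reported as dye-equivalent concentration at each test concentration.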
A647 autofl = A647 region autofluorescence. Compound fluorescence, A647 channel (570/671 nm), Tris buffer. max dye-equivalent concentration, M. 59,000 tested, under 10 active; active means above 1 µM dye equivalent; inconclusive means 0.1 to 1 µM; inactive means 0.1 µM or less;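 also: values scaled relative to a standard on each plate; highest value over a series up to 38 µM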
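Tris 100 mM pH 8.0; cpd + A647 stds pin-transferred; 15 min RT; CCD imager, ex 570/em 671. Output = A647-equivalent conc. per cpd conc.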
TSHR ag = agonists of human thyroid stimulating hormone receptor; 73,000 tested, 0.48% active; AID 926; Potency, µM (top dose mostly 57.1 µM), without a hit: top-dose activation, hits mostly activators; HEK293-CNG-TSHR cells (CNG channel as cAMP sensor), membrane potential dye, cAMP; active = well fitted activation curve of enough size with the parental cells flat; inconclusive = any curve in the parental cells; inactive = parental cells flat and receptor cells flat or falling; also: potency is read from the fitted curve at half-maximal effect; % of control where 0% means no effect; weak receptor curves with flat parental cells got no call and are not listed
Target sequence (P16473 whole entry, looked up): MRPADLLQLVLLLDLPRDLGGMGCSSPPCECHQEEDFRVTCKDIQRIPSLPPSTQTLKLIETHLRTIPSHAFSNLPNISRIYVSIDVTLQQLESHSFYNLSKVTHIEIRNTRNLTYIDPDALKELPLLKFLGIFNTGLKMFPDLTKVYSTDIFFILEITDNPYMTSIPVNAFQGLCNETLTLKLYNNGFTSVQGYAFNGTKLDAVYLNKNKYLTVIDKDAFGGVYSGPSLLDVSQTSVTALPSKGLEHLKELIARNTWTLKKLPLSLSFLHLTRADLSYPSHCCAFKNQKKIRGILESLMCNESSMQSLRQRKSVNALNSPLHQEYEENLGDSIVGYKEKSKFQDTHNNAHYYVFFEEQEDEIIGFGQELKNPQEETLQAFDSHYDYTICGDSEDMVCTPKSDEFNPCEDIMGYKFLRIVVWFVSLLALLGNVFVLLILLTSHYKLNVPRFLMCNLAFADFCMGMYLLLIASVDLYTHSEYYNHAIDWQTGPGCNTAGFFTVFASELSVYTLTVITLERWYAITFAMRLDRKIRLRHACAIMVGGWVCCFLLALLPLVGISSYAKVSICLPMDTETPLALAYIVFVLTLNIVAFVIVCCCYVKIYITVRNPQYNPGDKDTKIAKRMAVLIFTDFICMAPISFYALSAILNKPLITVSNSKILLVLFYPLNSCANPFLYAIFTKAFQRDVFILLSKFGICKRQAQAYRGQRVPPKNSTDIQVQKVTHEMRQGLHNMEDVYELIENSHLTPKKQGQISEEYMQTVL
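HEK 293 cells stably expressing TSHR and a cAMP-gated CNG channel; parental CNG-only cells as counterscreen. Cells preloaded 60 min with membrane potential dye plus 100 uM RO 20-1724, then compound 30 min; fluorescence read at 590 nm.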
Resorufin fluor = resorufin region autofluorescence; Compound fluorescence, resorufin region 547/598 nm, buffer; active compounds read high; max dye-equivalent concentration, M; 59,000 tested, 0.04% active; active = above 10 nM dye equivalent; inconclusive = 1 to 10 nM; inactive = 1 nM or less; a few of its hits are not listed in these tables; also: highest value over a series up to 38 µM
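Dye-equivalent concentration values derive from comparing each well's 547/598 nm fluorescence against resorufin standards included on every plate. Incubation was 15 min at room temperature in 100 mM Tris, pH 8.0.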
Numbers without * were called inactive; i = inactive; ? = inconclusive; nt = no result given; [ ] = remark or other dose.

SMILES,Resorufin fluor,A488 fluor,TSHR ag,A647 autofl,AID923
O=C1CC(C(=O)Nc2ccc(C(=O)N3CCOCC3)cc2)C2(CCCCC2)O1 (configuration not stated),i,i,-0.5%,8.1e-08,-0.6%
CC(=O)Nc1ccc(S(=O)(=O)N2CCN(Cc3ccncc3)CC2)cc1,i,i,-9.7%,3.5e-09,-0.6%
COc1ccccc1-c1ccc2ncnc(NC3CCNCC3)c2c1,i,i,12.0%,1.1e-08,1.1%
Cc1cc(C)nc(N2CCCC(C(=O)NC(C)CCc3ccco3)C2)n1 (configuration not stated),i,i,6.2%,1e-09,-0.5%
N#Cc1nc(COc2ccc(F)cc2)oc1NCCN1CCOCC1,i,i,0.2%,1.9e-08,0.6%
CCN(C(=O)COc1ncnc2ccc(Br)cc12)C1CCS(=O)(=O)C1 (configuration not stated),i,i,-15.4%,4.9e-09,-1.5%
COc1ccc(C(=O)N[C@H]2COC(C)(C)O[C@H]2c2ccccc2)cc1,i,i,9.4%[11.4 µM],8.4e-09,-0.8%
c1cc(CSc2nnc(-c3ccc4c(c3)OCO4)o2)ccn1,i,i,10.7%,4.8e-09,-0.2%
CCCC[C@@H]1C[C@H]1C(NS(=O)(=O)c1cccc2cccnc12)c1ccc(-c2ccccc2)cc1 (some centres not stated),nt,nt,25.5%,nt,1.6%
CC(C)C(=O)c1cn(CC(=O)NCC2CCCO2)c2ccccc12 (configuration not stated),i,i,3.5%,5e-09,-2.5%
Clc1ccccc1-c1nc(NCc2cccnc2)c2ccccc2n1,i,i,nt,1e-09,2.1%
O=C(OCC(=O)N1CCCC1)c1ccccc1OCc1ccccc1,i,i,4.6%,8.1e-09,-2.2%
CC1(C)CC(=O)C2=C(C1)NC(SCC(=O)Nc1ccccc1)=C(C#N)C2c1ccco1 (configuration not stated),i,i,?,5.8e-09,0.1%
N#C/C(=C\C1CC=CCC1)c1nc2ccccc2[nH]1 (configuration not stated),i,i,?,7.2e-09,0.9%
CCOc1ccc(C2=CS/C(=C(\C#N)c3nnc4n3CCCCC4)N2CC)cc1,i,i,27.9%,1.8e-09,-0.2%
CCOC(=O)c1cc(C)n(-c2c(C)n(C)n(-c3ccccc3)c2=O)c1C,i,i,-4.1%,1e-09,3.5%
Brc1ccc(-c2nnc(-c3ccccc3Br)o2)cc1,nt,nt,?,nt,0.0%
CCC(=O)N1CCN(CCN=CC2=C(O)CC(C)(C)CC2=O)CC1,nt,nt,-2.4%,nt,1.3%
CC(C)=C1C(=O)C(c2ccccc2)=C2CN3C(=O)N(CCc4ccccc4)C(=O)[C@]3(C)[C@H]21,nt,nt,?,nt,0.5%
C[N+](C)([O-])Cc1cc(-c2ccccc2)ccc1O,i,i,5.7%[11.4 µM],2.39e-08,1.6%[11.5 µM]
COC(=O)c1ccccc1NC(=O)NC1CCN(Cc2ccccc2)CC1,i,i,3.3%,6.5e-09,1.4%
O=C(Cn1nnc2ccccc2c1=O)NC1CCCc2ccccc21 (configuration not stated),i,i,-1.0%,5.71e-08,-2.1%
Cn1cccc1C(=O)NS(=O)(=O)c1ccccc1Cl,i,i,1.0%,3.05e-08,-1.5%
Oc1ccc(-c2nc3ncccn3c2Nc2ccc3c(c2)OCCO3)cc1,i,i,?,2.23e-08,-1.6%

Reprinted at random: 3 entries already listed, in no set order.
SMILES,Resorufin fluor,A488 fluor,TSHR ag,A647 autofl,AID923
O=C(Cn1nnc2ccccc2c1=O)NC1CCCc2ccccc21 (configuration not stated),i,i,-1.0%,5.71e-08,-2.1%
Cn1cccc1C(=O)NS(=O)(=O)c1ccccc1Cl,i,i,1.0%,3.05e-08,-1.5%
Oc1ccc(-c2nc3ncccn3c2Nc2ccc3c(c2)OCCO3)cc1,i,i,?,2.23e-08,-1.6%

(list continues)
SMILES,Resorufin fluor,A488 fluor,TSHR ag,A647 autofl,AID923
COC(=O)[C@@]1(Cc2ccc(OC)cc2)[C@H]2c3cc(C(=O)N(C)C)n(Cc4ccc(OC(F)(F)F)cc4)c3C[C@H]2CN1C(=O)c1ccccc1,nt,nt,?,nt,1.9%
CN(c1ccc(C(=O)NCc2ccncc2)cc1)S(C)(=O)=O,i,i,2.1%,1e-09,-1.0%
Cc1cccc(N(Cc2nnc3n2CCCCC3)C(=O)Nc2ccccc2)c1,i,i,17.8%,6.8e-09,0.5%
CC1Cc2ccccc2N1C(=O)CSc1nnc(-c2ccc(S(=O)(=O)N3CCCC3)cc2)o1 (configuration not stated),i,i,18.7%,4.86e-08,1.3%
O=S(=O)(NCc1cn2ccccc2n1)c1cc(F)ccc1F,i,i,2.7%,7.7e-09,-0.2%
CN(CC(=O)O)Cc1c[nH]c2ccccc12,i,i,3.1%[11.4 µM],1e-09,-1.1%[11.5 µM]
COC(=O)c1c(-c2cccs2)csc1NC(=O)CN1CCOCC1,nt,nt,?,nt,-0.9%
O=C(O)[C@@H]1CS[C@@]2(CCCN(Cc3ccccc3)C2)N1,i,i,0.2%[11.4 µM],1e-09,-1.4%[11.5 µM]
O=C(Nc1nnc(CCc2ccccc2)s1)c1ccco1,nt,nt,6.2%,nt,0.8%
CN1CCN(CCCCC(=O)c2ccccc2)CC1,i,i,nt,9.08e-08,nt
Cc1ccc(C(=O)[C@@H]2[C@@H]3[C@@H](C(=O)[C@@H]4OC[C@H]3O4)[C@@H]3C=Cc4ccccc4N23)cc1,i,i,-1.8%,1e-09,nt
CCc1c(C)nc2cc(-c3ccc(OC)cc3)[nH]n2c1=O,i,i,-2.4%,3.3e-09,0.4%
Cc1cc(OCC(=O)N2CCOCC2)ccc1NC(=O)C1CCCCC1,i,i,3.6%,8.8e-09,-0.7%
Cc1nc(C)c(-c2csc(NCc3ccccc3)n2)s1,i,i,-3.3%,3.66e-08,1.1%
C=CCn1c(SCC(=O)Nc2cc(C)ccc2C)nnc1-c1cnccn1,i,i,-6.2%,1.78e-08,2.3%
COc1ccc(C(=O)NCCn2ccc3ccccc32)c(OC)c1,i,i,15.1%,4.21e-08,-1.7%
CCCC1Cc2c(sc3ncnc(N)c23)CO1 (configuration not stated),i,i,nt,1e-09,nt
CCOC(=O)c1ccc(NS(=O)(=O)c2cc(-c3nnnn3CC)ccc2OC)cc1,nt,nt,-11.9%,nt,-0.7%
COc1ccc(C(=O)N2CCC3(CCN(C(=O)Nc4cccc(C#N)c4)CC3)CC2)cc1,i,i,nt,2.9e-09,2.8%
COc1ccc(O)c(C=Nc2cc(C)on2)c1,nt,nt,-8.9%,nt,3.7%
COc1ccc(C2C(C(=O)NCc3ccco3)CCC(=O)N2c2ccc(OC)cc2)cc1 (configuration not stated),i,i,6.9%,5e-09,1.3%
CCOc1ccccc1-c1nc(-c2ccc(NC(=O)Cc3ccccc3OC)cc2)no1,i,i,7.4%,2.86e-08,0.5%
CCCCC#CC1C=CC(Oc2cc(OC)c(OC)c(OC)c2)C(CO)O1 (configuration not stated),nt,nt,-5.3%[11.4 µM],nt,2.1%[11.5 µM]
CCOC(=S)SCC(=O)O,i,i,3.3%[11.4 µM],4.36e-08,0.4%[11.5 µM]
Cc1ccc2cccc(S(=O)(=O)Nc3c(C)n(C)n(-c4ccccc4)c3=O)c2n1,i,i,5.4%,3.85e-08,1.8%
CCOc1ccccc1NC(=O)C1CCCN(S(=O)(=O)c2cccc3nsnc23)C1 (configuration not stated),i,i,-8.3%,3.78e-08,-0.5%
Cc1nc2cc(CO)ccc2s1,i,i,-1.1%,1e-09,-1.6%
Cc1ccc(C)c(-c2nnc(OCC(=O)Nc3cc(C)on3)c3ccccc23)c1,i,i,11.5%,8.8e-09,-1.2%
CC(CCl)OC(C)CCl (configuration not stated),nt,nt,0.5%,nt,-1.3%
CCC(=O)N1CCc2cc(Br)cc(S(=O)(=O)CCC(=O)NCC3CCCO3)c21 (configuration not stated),i,i,1.3%,1e-09,1.0%
COCCCNC(=O)CCc1nc2cccnc2n1Cc1ccc(OC)cc1,i,i,0.1%,6.2e-09,-0.1%
CN(C)c1ncnc2ccc(-c3cccc(NS(C)(=O)=O)c3)cc12,i,i,?,1e-09,0.6%
O=C(CSc1nc2ccccc2[nH]1)N1CCCCC1,i,i,3.7%,1.3e-09,-4.4%
Cc1ccc(N(Cc2ccco2)C(=O)c2cccc(S(=O)(=O)N(C)C)c2)cc1,i,i,20µM*,1.17e-08,-1.7%
CCN(C(=O)Cc1cccs1)c1nnc(-c2cc(OC)c(OC)c(OC)c2)s1,i,i,20.7%,4.42e-08,-1.6%
Cc1ccn(C(=O)c2ccc(NC(=O)C3CCCCC3)cc2)n1,i,i,nt,2.43e-08,-1.7%
O=C(CN1C(=O)NC2(CCSC2)C1=O)N1CCN(c2ccc(F)cc2)CC1 (configuration not stated),i,i,-7.7%,1e-09,1.2%
Nc1cc(OC(=O)c2cccs2)nn1S(=O)(=O)c1ccccc1,i,i,3.1%[11.4 µM],8.2e-09,-1.1%
COc1ccc(NC(=O)CSc2nc3c(c(=O)n2-c2ccccc2OC)SCC3)cc1,nt,nt,12.6%,nt,2.1%
O=S(=O)(Cc1ccccc1)Nc1ccc(S(=O)(=O)NCC2CCCO2)cc1 (configuration not stated),i,i,nt,1.89e-08,-3.6%
COc1cc(C(=O)NCc2cn3cccc(C)c3n2)cc(OC)c1OC,nt,nt,6.3%,nt,0.7%
Cc1c(CCC(=O)O)c(=O)oc2cc3occ(-c4ccc(F)cc4)c3cc12,i,i,-2.2%,1.1e-09,3.8%
CCOC(=O)c1cc(NC(=O)c2cnccn2)cc(C(=O)OCC)c1,i,i,4.4%,7.1e-09,0.4%
O=C(c1ccccc1Oc1ccccc1)N1CCN(c2ccccc2)CC1,nt,nt,?,nt,1.2%
CCOC(=O)OCC1OC(c2ccc(C(C)=O)cc2)C=CC1Oc1ccc(-c2ccccc2)cc1 (configuration not stated),nt,nt,0.2%[11.4 µM],nt,0.0%[11.5 µM]
CNC(=O)c1cc2c(cn1)[nH]c1ccccc12,i,i,?,1e-09,-3.0%
COc1ccc(C(=O)CN2C(=O)C(C)(C)Oc3ccc(C(=O)N4CCCCCC4)cc32)cc1,i,i,7.8%,1.51e-08,1.3%
COc1ccccc1-c1nnc(SCC(=O)N2CC(C)CC(C)C2)o1 (configuration not stated),i,i,15.2%,1.98e-08,-1.7%
COc1ccc(N2CCN(CCCNC(=O)CN3CCN(Cc4ccccc4C)C3=O)CC2)cc1,i,i,nt,1e-09,-2.5%
CC1CCCCC1NC(=O)CSc1nnc(COc2ccccc2Cl)o1 (configuration not stated),i,i,1.1%,1e-09,0.2%
COc1ccccc1C(OC(=O)c1ccco1)C(=O)NC(C)(C)C (configuration not stated),i,i,19.8%,1e-09,3.9%
CCOc1ccc(N(CC(=O)Nc2cccc(OC)c2)S(=O)(=O)c2c(C)noc2C)cc1,nt,nt,15.7%,nt,-2.8%
CCN(C(=O)c1cc(Cl)ccc1OC)c1ccccc1,nt,nt,?,nt,0.5%
O=C1CC(N2CCN(C/C=C/c3ccccc3)CC2)C(=O)N1Cc1cccs1 (configuration not stated),i,i,23.0%,3.57e-08,-3.6%

Not all compounds are listed; the hit share may differ from the screen's.
